HPGD block – inhibitors of human 15-hydroxyprostaglandin dehydrogenase (HPGD); purified HPGD, NADH fluorescence kinetic, PGE2 substrate; Potency, µM, inactives show at the highest dose activity change, negative = inhibition, hits mostly inhibitors; 4.3% of 150,000 active; active = well fitted inhibition curve with a large enough effect (not every such curve was filed as active); inconclusive = small, poorly fitted or top-dose-only effect, or another doubt; inactive = no such curve, though single readings can be large or run the other way;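 also: top concentration of the series not given in the record; plate controls included wells without enzyme; inactives centre near -10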
Target sequence (P15428 whole entry, looked up): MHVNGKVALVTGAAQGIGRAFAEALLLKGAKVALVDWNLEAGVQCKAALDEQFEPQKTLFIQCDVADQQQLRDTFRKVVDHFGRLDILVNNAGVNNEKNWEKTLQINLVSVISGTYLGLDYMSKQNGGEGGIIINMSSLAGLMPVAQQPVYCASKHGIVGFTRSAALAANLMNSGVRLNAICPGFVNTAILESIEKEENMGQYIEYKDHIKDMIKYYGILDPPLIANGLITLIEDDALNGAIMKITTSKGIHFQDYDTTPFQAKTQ
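NADH formation kinetics: reaction with 30 uM PGE2 and 1 mM NAD+ (final), 20 nM enzyme, Tris-HCl pH 8 with Tween 20, after 15 min compound preincubation at room temperature. Fluorescence change, last versus first of five reads.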
Numbers without * were called inactive; u = inconclusive. % is scaled to controls: 0 for no effect and ±100 for the full control effect; potency is read from the fitted curve at half-maximal effect.

SMILES	HPGD block
CCN(CC)S(=O)(=O)c1ccc2c(c1)c(=O)c(C(=O)NCc1ccc3c(c1)OCO3)cn2C	-10.1%
CCn1c(SCC(=O)Nc2nc(C)cs2)nnc1C(NC(=O)c1ccccc1Cl)C(C)C (stereo not given)	2.7%
Cc1nc2nc(SCC(=O)NCc3ccco3)nn2c(C)c1Cc1ccccc1	22.4µM*
O=C(Nc1ccccc1F)c1ccc(COc2ccc(Cl)cc2Cl)o1	-15.5%
CC(C)[C@H](NC(=O)c1ccccc1Cl)C(=O)OCc1cc([N+](=O)[O-])cc2c1OCOC2	-12.7%
CCn1nc(C)c(/C=N/NC(=O)Cn2nccc2C)c1C	-13.3%
Brc1ccc(-n2cccc2/C=N/n2cnnc2)cc1	-13.0%
COc1cc(C)c(Cl)cc1S(=O)(=O)NCCN1CCOCC1	-4.8%
CN(CCOCCOc1ccc2ccccc2c1)Cc1ccccc1	-9.2%
COc1cccc(NC(=O)C2C3C=CC4(O3)C2C(=O)N(C(C)C)C4C(=O)NC2CCCCC2C)c1 (stereo not given)	-6.6%
c1ccc(C(c2c[nH]c3ccccc23)c2c[nH]c3ccccc23)nc1	-17.7%
O=c1[nH]cnc2c1C(c1ccccc1[N+](=O)[O-])c1c(nc[nH]c1=O)O2	-8.8%
CCOC(=O)C1=C(C)NC(C)=C(C(=O)OCC)C1C(=O)OCC(=O)N1c2ccccc2CC1C (stereo not given)	-21.2%
CCOc1cccc(C(=O)NC(=S)Nc2cccnc2)c1	-12.2%
C=CCn1c(=S)[nH]c2nc3c(cc2c1=O)COC(C)(C)C3	-7.1%
Cc1ccc(NC(=O)CN2C(=O)S/C(=C\c3cccn3-c3cccc(C(=O)O)c3)C2=O)c(C)c1	u
Cc1cc(C)nc(SCC(=O)Nc2ncccn2)n1	-6.1%
CN1c2ccccc2-c2nc3ccccc3n2C1c1cccs1 (stereo not given)	u
Cn1nnnc1SCSc1nnnn1C	-8.1%
Cc1ccc(NC(=O)C2(c3cccs3)CCOCC2)cc1C	-6.5%
C[C@@H]1CC[C@@]2(O[C@H](CCO)C[C@@H](O)[C@@H]2O)O1	-10.9%
O=C1CC(c2ccncc2)c2cc3c(cc2N1)OCO3 (stereo not given)	-7.7%
O=C(CNS(=O)(=O)c1ccc(F)c(Cl)c1)N1CCCCCC1	-15.1%
Cn1c(=O)c(-c2ccccc2)nc2cnc(N3CCNCC3)nc21	u
Cc1cc(=O)n2[nH]c(C)c(-c3ccccc3)c2n1	-10.2%
CCN(CC)C(=O)CSCc1cnn(-c2ccccc2)c1-n1cccc1	-12.3%
CCCC(=O)Nc1ccc(C)c(O)c1	-5.6%
Cc1ccc(NC(NC(=O)c2cccs2)C(Cl)(Cl)Cl)cc1C (stereo not given)	-18.3%
CC(=O)c1ccc(OCC(O)CN(C)Cc2cccs2)cc1 (stereo not given)	-11.3%
COC(=O)c1ccc(C(/C=C/[C@@H](C)C(=O)NCc2ccc(OC)c(O)c2)NC(=O)OCc2ccccc2)cc1 (stereo not given in full)	-14.7%
CC(=O)Nc1ccc(OC(=O)c2ccccc2O)cc1	u
COc1cc(N/N=C/c2ccccc2O)ncn1	-15.0%
COCCCNC(=O)Cn1cc(C(=O)C2CC2)c2ccccc21	-7.7%
Cc1cc([N+](=O)[O-])c(C)c(Br)c1C	-11.3%
O=C(c1cnn2c(C(F)(F)F)cc(-c3ccc(Br)cc3)nc12)N1CCOCC1	u
O=c1cc(Cl)[nH]c(=O)n1CCNc1ncc(C(F)(F)F)cc1Cl	-10.0%
Cc1ccc(/C=c2\sc3nc(-c4cccs4)nn3c2=O)o1	-18.7%
CCc1ccc(-c2cc(C(F)(F)F)n3nc(C(=O)Nc4c(C)nn(Cc5ccccc5Cl)c4C)cc3n2)s1	u
CC(=O)NO	-6.5%
CC1(C)CC(=O)C(C=Nc2ccccc2C(=O)O)=C(O)C1	u
Cn1c(=O)c2c(ncn2CC(=O)Nc2cc(Cl)c(Cl)cc2Cl)n(C)c1=O	-8.6%
C=CCN(C)CC/C=C1\c2ccccc2CSc2ccccc21	-6.8%
COc1cc(C(=O)O/N=C2\CCCc3c2ccc(OC)c3[N+](=O)[O-])cc(OC)c1OC	-12.8%
CCCCCCn1c(CN2CCN(C)CC2)nc2c1c(=O)n(C)c(=O)n2C	-14.4%
Cc1cc(-c2ccc(Cl)s2)n[nH]1	-16.1%
CCc1nc(NC(C)C)c2oc3ccccc3c2n1	-12.7%
Cc1ccc(-c2nc3cnccn3c2Nc2c(C)cccc2C)o1	u
O=C(C1CCN(S(=O)(=O)c2cccc3cccnc23)CC1)N1CCn2c1nc1ccccc12	-8.6%
Nc1nnc(SCC(=O)N2CCN(Cc3ccccc3)CC2)s1	3.0%
CCOc1c(N2CCCCC2)c(=O)c1=O	-22.3%
Cc1ccc(NS(=O)(=O)c2cc(C(=O)N3CCN(C)CC3)ccc2C)cc1	-7.4%
CCOc1ccc(CN(C)C(C)C(=O)Nc2ccc([N+](=O)[O-])cc2Cl)cc1OC (stereo not given)	-12.7%
S=c1[nH]nc(-c2cccc(Br)c2)o1	-21.5%
COc1ccc(N2CCN(C(=O)CNC(=O)c3ccc(C(C)(C)C)cc3)CC2)cc1	-14.0%
CCOC(=O)CN1C(=O)CSc2ccccc21	-22.2%
O=C(NCc1cccnc1)/C(=C\c1ccc(-c2cccc(Cl)c2)o1)S(=O)(=O)c1ccccc1	-6.3%
COc1ccc(-n2nc([N+](=O)[O-])c(=NCCc3ccc(OC)c(OC)c3)n2O)cc1	-18.8%
Cc1cc2oc(=O)cc(CN3CCC(C)CC3)c2cc1Cl	-23.2%
COCCNC(=O)c1snc2ccc(Cl)cc12	u
Cc1cc(Cl)ccc1OCCCC(=O)N1CCN(C(=O)c2ccco2)CC1	-10.2%
Additional entries
SMILES	HPGD block
Cc1ccc2nc(SCC(=O)Nc3cc(C(F)(F)F)ccc3N3CCOCC3)[nH]c2c1	-2.3%
O=C(Cn1nnc(-c2ccccc2-n2cnnn2)n1)NCc1ccccc1	-16.3%
Cc1ccc(CCNC(=O)C2CCN(S(=O)(=O)N3CCC4(CC3)OCCO4)CC2)cc1	-11.5%
CN(C)C(CNC(=O)c1cccc(OC(F)F)c1)c1ccco1 (stereo not given)	-6.8%
Cc1ccc(NC(=O)Cn2cccc2C2=NC(c3ccccc3)CO2)cc1C (stereo not given)	-10.4%
COc1ccc(-c2noc(CCC(=O)NCC3CCN(Cc4cccc(C)c4)CC3)n2)cc1	-3.0%
CCCCC[C@H](O)/C=C/C=C\C/C=C\CCCCCCC(=O)O	-4.6%
CCOC(=O)N1CCN(C(=S)Nc2cc(OC)c(OC)cc2C(=O)OC)CC1	-3.4%
Cc1ccccc1OCc1nnc(SCc2cc(=O)[nH]c3ccccc23)o1	-21.4%
CC12CC(c3ccccc3O1)C(C(=O)NCc1ccccc1)C(=O)N2 (stereo not given)	-6.6%
Nc1ncnc(Nc2ccccc2C(F)(F)F)n1	-9.5%
COc1cccc(NC(=S)N2CCN(C/C=C/c3ccccc3)CC2)c1	-14.7%
C/C(=N\NC(=O)c1ccc(Cl)cc1)c1ccc(N2CCOCC2)cc1	u
O=C(CCN1C(=O)C2C3C=CC(C3)C2C1=O)NCCN1CCCc2ccccc21 (stereo not given)	-1.0%
Cc1ccc(-c2c(C#N)c(N)nc3c2CCCCC3)cc1	u
Cc1cc(N2CCOCC2)ccc1/C=C\[N+](=O)[O-]	u
Cc1ccc2c(CN3C(=O)NC(C)(c4ccc5c(c4)OCO5)C3=O)cc(=O)oc2c1 (stereo not given)	u
CCC(C)OC(=O)C1=C(C)NC(=O)CC1c1ccccc1OC (stereo not given)	-13.4%
O=C(N1CCOCC1)N1CCN(C(c2ccccc2)c2ccccc2)CC1	-7.1%
O=S(=O)(/N=C(/c1ccccc1Cl)N1CCOCC1)c1ccccc1	-6.8%

3 records drawn at random from the list so far, as already listed:
SMILES	HPGD block
CCC(C)OC(=O)C1=C(C)NC(=O)CC1c1ccccc1OC (stereo not given)	-13.4%
CC12CC(c3ccccc3O1)C(C(=O)NCc1ccccc1)C(=O)N2 (stereo not given)	-6.6%
CN(C)C(CNC(=O)c1cccc(OC(F)F)c1)c1ccco1 (stereo not given)	-6.8%

(cont.)
SMILES	HPGD block
O=C(O)CC/C=C\C[C@@H]1CO[C@H](c2ccccc2Cl)O[C@@H]1c1ccccc1O	-2.9%
CC(C)C(NC(=O)c1ccco1)C(=O)NCC(c1ccco1)N1CCCCC1 (stereo not given)	-6.8%
O=C1CCC(C(=O)Nc2cccc3ccccc23)N1 (stereo not given)	3.7%
N/C(COc1ccc(F)cc1)=N\NC(=O)c1cccnc1Oc1ccccc1	-8.6%
Cc1ccc(C(=O)N2CC3(C(C)C)CN(C(=O)c4ccc(C)cc4)CC(C(C)C)(C2)C3=O)cc1	3.2%
O=C1CCCC(O)=C1N=Nc1c(Cl)cc(Cl)cc1Cl	-11.3%
COc1ccc(C2=Nc3ccccc3OC2)cc1	-19.2%
Cn1c2ccccc2c(=O)c2c(=O)n(Cc3ccco3)c(COc3ccccc3)nc21	-6.9%
COC(=O)c1[nH]c2cc(OC)ccc2c1NC(=O)CN1CCN(c2cccc(C)c2)C(C)C1 (stereo not given)	-17.6%
CCCCNS(=O)(=O)c1ccc(NC(=O)c2c(-c3ccccc3Cl)noc2C)cc1	-12.1%
CCOC(=O)c1c(-c2ccccc2Cl)cn2ccccc12	u
CCCCc1c(O)n(-c2ccccc2)[nH]c1=O	-10.4%
CCN(CC)c1ccc(NC(=O)CCCCCN2C(=O)c3ccccc3C2=O)cc1	-13.8%
O=C(O)C[C@@H](O)C(=O)O	-5.2%
Cn1c(SCC(=O)N2CCCc3ccccc32)nnc1-c1c[nH]c2ccccc12	0.5%
CCCCNCc1cc(Cl)c(OCCC)c(OCC)c1	-6.5%
O=C(COC(=O)c1ccc(S(=O)(=O)N2CCCC2)cc1)NCc1ccc(F)cc1	1.9%
CCSCC1COC(c2cccn2Cc2ccc(C)cc2)=N1 (stereo not given)	-7.5%
O=C(CCn1cccc1)Nc1ccc(F)cc1	-6.5%
CCCCC1C(=O)CC[C@H]2[C@@H]1CC(=O)[C@@H]2C/C=C\CCCC(=O)O (stereo not given in full)	-13.6%
Cc1cc([N+](=O)[O-])nn1CC(=O)N1N=C(C(F)F)CC1(O)C(F)F (stereo not given)	-7.0%
CC(C)C(=O)NCCSc1c[nH]c2ccccc12	-17.5%
CCOC(=O)CC(=O)Nc1nc2ccccc2s1	-5.3%
Cc1ccc2occ(C3NC(C(=O)O)CS3)c(=O)c2c1 (stereo not given)	-12.2%
COC(=O)[C@@]1(Cc2ccccc2)[C@H]2c3cc(C(=O)N(C)C)n(Cc4ccc(S(C)(=O)=O)cc4)c3C[C@H]2CN1C(=O)c1ccccc1	-9.2%
O=C(NC1CCCC1)C1CCCN(S(=O)(=O)c2cccc3cccnc23)C1 (stereo not given)	-12.0%
CCCCC(=O)NC(c1ccccc1Cl)c1c(O)ccc2ccccc12 (stereo not given)	-14.1%
O=C(CSc1nc(-c2ccco2)cc(C(F)(F)F)n1)NC1CCCC1	14.1µM*
Cc1ccc(Cn2c(=O)c3c(nc4n3CCN4Cc3ccco3)n(C)c2=O)cc1	-15.6%
CCCCCCOC(=O)C1=C(C)NC(=O)NC1c1ccc(O)cc1 (stereo not given)	-16.4%
O=C(OCC(=O)N1CCCCC1)c1cc2ccccc2cc1O	-17.7%
S=c1[nH]nc(Cc2cccc3ccccc23)n1-c1ccccc1	14.1µM*
CCCCCn1nc(C)c(/C=N/NC(=O)c2ccoc2C)c1C	-4.2%
N#CC1(c2ccccc2)CCCN1C(=O)c1ccccc1Br (stereo not given)	-7.9%
Cc1nn(-c2ccccc2)c(NC(=O)c2cccs2)c(-c2ccc(Cl)cc2)c1=O	-5.2%
CCOc1cc(CNc2ccccc2)cc(Br)c1OCc1ccc(F)cc1	-23.5%
Cn1c(=O)n(C)c2cc(S(=O)(=O)NCCc3ccccc3)ccc21	-9.7%
Cc1cc(C(=O)OCn2nnc3ccccc3c2=O)c(C)o1	-6.0%
O=C(NCc1ccco1)c1cc2n(n1)C(C(F)(F)F)CC(c1ccc(F)cc1)N2 (stereo not given)	-8.8%
Cc1ccccc1OCc1nc2ccccc2c(=O)n1/N=C/c1cccc([N+](=O)[O-])c1	-9.3%

Of the compounds above, these contain a cyano group:
SMILES	HPGD block
Cc1ccc(-c2c(C#N)c(N)nc3c2CCCCC3)cc1	u
N#CC1(c2ccccc2)CCCN1C(=O)c1ccccc1Br (stereo not given)	-7.9%

More records:
SMILES	HPGD block
COc1ccc(S(=O)(=O)n2oc(=O)cc2-c2ccccc2)cc1OC	-28.3%
Cc1ccc(/C=C2\CCC(C3CCCC3)C2=O)cc1 (stereo not given)	-16.5%
COc1ccc(-n2c(Cc3cc(=O)[nH]c(=O)[nH]3)nnc2SCC(=O)NC2CCCC2)cc1	1.0%
C=CCn1c(O)c(N=NC(=O)CNC(=O)/C=C/c2ccco2)c2ccccc21	-16.7%
O=C(Nc1ccccc1C(=O)NCc1ccc(Cl)cc1)c1ccco1	u
Cn1c(=O)[nH]c(=O)c2c1nc(Br)n2CCCCSc1nc2ccccc2o1	25.1µM*
CNC(=O)c1ncnnc1N(C)C(=O)NCc1ccccc1	-10.3%
O/N=C(\COc1ccccc1O)c1ccccc1	-21.9%
CCCC(C)NC(=O)COC(=O)c1ccc(Cl)c(S(N)(=O)=O)c1 (stereo not given)	-3.3%
CCCn1c(-c2ccc(F)cc2)nc2c(NCCN3CCCCC3)nc(C)nc21	u
COc1ccc(N2CCN(CC(=O)N3N=CCC3c3ccccc3)CC2)cc1 (stereo not given)	-0.7%

With a hit mark in HPGD block, of those listed so far:
SMILES	HPGD block
Cc1nc2nc(SCC(=O)NCc3ccco3)nn2c(C)c1Cc1ccccc1	22.4µM*
O=C(CSc1nc(-c2ccco2)cc(C(F)(F)F)n1)NC1CCCC1	14.1µM*
S=c1[nH]nc(Cc2cccc3ccccc23)n1-c1ccccc1	14.1µM*
Cn1c(=O)[nH]c(=O)c2c1nc(Br)n2CCCCSc1nc2ccccc2o1	25.1µM*

An excerpt (hit frequency here may not be typical).
